Screening data deposited in PubChem BioAssay by several laboratories.
RecA intein inh = blocks M. tuberculosis RecA intein splicing | P9WHJ3 | cell-free RecA intein splicing, fluorescence | inhibition, %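 (about 9 µM by stock and volumes)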 | 0.75% of 290,000 active | AID 2221; in the data active = inhibition above about 30%; inconclusive = no clear call, values can overlap the other calls;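 also: 0% = vehicle wells and 100% = reference inhibitor control wells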
Target sequence (P9WHJ3 whole entry, looked up): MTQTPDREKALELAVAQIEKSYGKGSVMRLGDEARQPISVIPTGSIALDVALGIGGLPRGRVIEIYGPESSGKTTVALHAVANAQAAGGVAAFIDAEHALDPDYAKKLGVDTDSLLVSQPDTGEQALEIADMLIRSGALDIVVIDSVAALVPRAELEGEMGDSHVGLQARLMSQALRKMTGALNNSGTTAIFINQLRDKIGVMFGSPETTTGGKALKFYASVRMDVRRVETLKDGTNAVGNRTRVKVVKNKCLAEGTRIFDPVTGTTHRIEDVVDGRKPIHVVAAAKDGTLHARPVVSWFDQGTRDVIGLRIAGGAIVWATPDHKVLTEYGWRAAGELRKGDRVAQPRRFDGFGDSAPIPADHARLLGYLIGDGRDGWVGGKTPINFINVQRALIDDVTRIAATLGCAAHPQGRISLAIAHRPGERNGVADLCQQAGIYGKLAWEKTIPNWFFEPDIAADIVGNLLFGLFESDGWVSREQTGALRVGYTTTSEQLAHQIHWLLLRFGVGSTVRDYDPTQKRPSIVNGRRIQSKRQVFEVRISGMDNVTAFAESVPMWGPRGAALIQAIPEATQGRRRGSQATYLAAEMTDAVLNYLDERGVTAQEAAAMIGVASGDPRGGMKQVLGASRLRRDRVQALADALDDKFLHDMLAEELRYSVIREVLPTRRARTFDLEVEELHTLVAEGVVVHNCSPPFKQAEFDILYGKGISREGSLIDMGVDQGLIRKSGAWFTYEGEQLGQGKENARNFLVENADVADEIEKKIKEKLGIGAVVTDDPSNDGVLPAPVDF
Mtb bLac sens = beta-lactam sensitization of Mtb H37Rv. M. tuberculosis H37Rv growth with meropenem, percent inhibition; hits of this screen are not shown here. inhibition, % at 25 µM. 0.27% of 330,000 active. AID 434955;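 active = about 74% or more and at least 40 points above the plate without the antibiotic, then above 30% in a dose series; inconclusive = first-round hits that could not be retested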;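 also: growth measured after seven days incubation then overnight dye step; 0% = bacteria only wells and 100% = bacteria with antibiotic; twin plates without the antibiotic show which effects depend on it; some results filed as inactive read as strong as hits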
YopH inh = inhibitors of Yersinia enterocolitica YopH tyrosine phosphatase; inhibition, %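 (about 10 µM by stock and volumes)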; 0.16% of 140,000 active; fluorescence Ex485/Em525;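 active = inhibition of 50% or more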;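 also: controls were vehicle for no effect and minimum signal wells for full effect; inactives centre near -20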
Mtb growth = M. tuberculosis H37Rv growth inhibitors, H37Rv strain (AID 1626); 0.95% of 220,000 active; one-dose inhibition, % at 10 µM; IC50 in µM for titrated hits; M. tuberculosis H37Rv growth inhibition; higher % means a stronger effect;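 active = confirmed in a dose series; inconclusive = inhibition above 80% but not taken into the dose series; inactive = below 80% or under 30% at every dose of the series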;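 also: bacteria incubated seven days before Alamar blue readout; 0% = bacteria only wells and 100% = bacteria with antibiotic wells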
Arbovirus inh = antivirals against arbovirus infection; arbovirus infection cell-based antiviral screen; inhibition, % at 10 µM; 0.37% of 200,000 active; AID 1251;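 active = inhibition from about 30%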;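 also: bluetongue infection of BSR cells; cell survival read as ATP light after 72 h; 0% = infected wells without compound and 100% = uninfected wells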
Arbovirus inh repeat = recorded beside Arbovirus inh, whose call it bears; inhibition, %; measured here: 10K subset replicate screen; many hits read low in the repeat;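 first of two repeat runs on a subset; 0% = infected and 100% = uninfected wells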
Starred values were filed as active, the others as inactive; ? = inconclusive; nt = not tested or not shown. These rows are one share of the data (hit frequency here may not be typical).

SMILES	RecA intein inh	Mtb bLac sens	YopH inh	Mtb growth	Arbovirus inh	others
CCN(C(=O)c1cccs1)c1nc(-c2ccc(OC)cc2)cs1	-0.2	19.9	nt	11.6%	-6.0
O=C(CNC1CCCCCC1)c1cccs1	1.8	-0.6	-24.6	-3.3%	-7.8
CC(C)(C)[C@H]1C=C(C(=O)O)O[C@@H](OCCCCO)C1	-0.2	-5.1	nt	-11.3%	nt
COc1cc(C(=O)NC(=S)Nc2ccc3c(c2)OCO3)cc(OC)c1OC	-1.2	2.2	nt	4.3%	nt
Cc1ccccc1CC1(CO)CCCN(C(=O)c2ccccc2N(C)C)C1 (configuration not stated)	-0.5	-1.8	nt	0.1%	-2.1
O=C1Nc2ccccc2C1Cc1ccc(OC(F)(F)F)cc1 (configuration not stated)	2.2	-6.2	nt	nt	nt
Cc1cccc(CSc2nnc([C@@H]3CCCN3)o2)c1	1.2	-8.8	nt	-6.3%	nt
CN(C)c1ccc(C(=O)OCC(=O)NCCCc2ccccc2)cc1	-0.7	6.8	nt	nt	nt
Cc1c(C(=O)O)sc2nc(CSc3ncc(C(F)(F)F)cc3Cl)[nH]c(=O)c12	-0.3	-7.5	nt	-2.7%	nt
O=C(Nc1cccnc1)Nc1ccccn1	-0.7	-13.2	-146.0	-0.7%	-0.1	Arbovirus inh repeat=-3.1
O=C(NC1CCCCC1)c1cccnc1Sc1ccccc1Cl	-0.7	-3.6	nt	nt	nt
CCOc1ccc(/C=N/n2cc(-c3ccccc3)[nH]c2=S)cc1	5.6	58.2	nt	3.6%	-6.7
CCOc1ccc(NC(=O)c2cccc(OC(=S)N3CCOCC3)c2)cc1	0.0	-4.4	nt	-0.7%	-7.8
Cc1ccc(OCCC(=O)OC(C)C(=O)Nc2ccc(Cl)cn2)cc1 (configuration not stated)	-3.3	15.4	nt	nt	nt
CCc1ccc(CN(C)CC(O)COc2cccc3ccccc23)cc1 (configuration not stated)	5.2	53.4	nt	nt	nt
COc1ccc(Nc2cc3n(c(=O)n2)CCc2cc(OC)c(OC)cc2-3)c(C)c1	-0.6	?	nt	nt	nt
O=Cc1cn(Cc2cccc(F)c2)c2ccccc12	0.7	2.1	-24.9	3.9%	2.1
COc1ccc2c(C)cc(SCC(=O)Nc3nsc(-c4ccc(C)cc4)n3)nc2c1	-3.6	1.4	-22.7	nt	-8.2
O=C(Cn1nc(C(F)F)cc1C1CC1)NCCC1=CCCCC1	6.8	6.9	6.2	2.6%	0.9
CC(C)(C)OC(=O)CNC(=O)c1nc[nH]c1C(=O)N1CCN(c2ccccc2)CC1	-0.7	-3.6	nt	nt	nt

Compounds from the list above that contain a COOH group:
SMILES	RecA intein inh	Mtb bLac sens	YopH inh	Mtb growth	Arbovirus inh	others
CC(C)(C)[C@H]1C=C(C(=O)O)O[C@@H](OCCCCO)C1	-0.2	-5.1	nt	-11.3%	nt
Cc1c(C(=O)O)sc2nc(CSc3ncc(C(F)(F)F)cc3Cl)[nH]c(=O)c12	-0.3	-7.5	nt	-2.7%	nt

Further structures follow.
SMILES	RecA intein inh	Mtb bLac sens	YopH inh	Mtb growth	Arbovirus inh	others
Cc1ccc(-c2nc(N(C)C3CCN(C)CC3)c3ccccc3n2)cc1	-2.3	52.7	1.1	65.2%	-36.9
[O-][n+]1c(/C=C/c2ccccc2)ccc2ccccc21	0.6	1.8	nt	nt	nt
CCc1cc(=O)oc2cc(C)cc(OC(C)C(=O)NCCCn3ccnc3)c12 (configuration not stated)	-0.3	2.9	nt	nt	nt
O=C(COC(=O)c1n[nH]c2ccccc12)Nc1cccc(S(=O)(=O)N2CCOCC2)c1	0.8	nt	nt	-4.0%	5.5
Cc1cccnc1CN1CCN(C(=O)c2cc(COc3ccc4ncccc4c3)on2)CC1	2.6	-10.0	nt	-0.1%	6.9
Cc1ccc(NC(=O)CSc2nnc(N)s2)cc1S(=O)(=O)N1CCOCC1	-0.3	1.6	nt	nt	nt
CC1c2[nH]c3ccccc3c2C[C@H]2C(=O)N(CCO)CC(=O)N12 (some centres not stated)	-1.9	1.0	nt	nt	nt
O=C(CSc1nc2ncc(Cl)cc2[nH]1)N(Cc1ccccc1)C1CCS(=O)(=O)C1 (configuration not stated)	0.9	-4.0	nt	0.2%	19.1
CCOC(=O)c1cnc2cc(-c3ccc(Br)cc3)nn2c1C	4.0	-1.8	nt	nt	nt
CCOC(=O)CC(=O)COc1nc2cc3c(nc2o1)CCCC3	0.9	7.2	nt	nt	nt

Three compounds picked at random from the list so far, as already listed:
SMILES	RecA intein inh	Mtb bLac sens	YopH inh	Mtb growth	Arbovirus inh	others
O=C(NC1CCCCC1)c1cccnc1Sc1ccccc1Cl	-0.7	-3.6	nt	nt	nt
COc1cc(C(=O)NC(=S)Nc2ccc3c(c2)OCO3)cc(OC)c1OC	-1.2	2.2	nt	4.3%	nt
[O-][n+]1c(/C=C/c2ccccc2)ccc2ccccc21	0.6	1.8	nt	nt	nt

Additional results
SMILES	RecA intein inh	Mtb bLac sens	YopH inh	Mtb growth	Arbovirus inh	others
COC(=O)c1cn(NC(=O)c2cnccn2)c(=O)c2ccccc12	-4.9	95.0	-8.6	?	-20.8	Arbovirus inh repeat=-13.0
CCOC(=O)Cc1nn(C(C)C)c(=O)c2ccccc12	1.7	-2.2	nt	-2.9%	-7.9
Fc1cccc(Cl)c1CSc1nnc(CNc2ccccc2)o1	2.6	11.4	nt	6.5%	-15.4
O=C(NCc1ccc(Cl)cc1)C(=O)Nc1nccs1	-2.3	0.6	nt	2.0%	15.1
NS(=O)(=O)c1ccc(CNS(=O)(=O)Cc2ccc(Cl)cc2)cc1	-3.1	-2.0	nt	nt	nt
CCc1ccc2nc(SCC(=O)N3CC(=O)Nc4ccccc43)c(C#N)cc2c1	nt	3.9	-29.9	19.3%	-20.4
O=c1[nH]c2cc3c(cc2cc1CN(Cc1cccnc1)C(=S)NCc1ccco1)OCCO3	-0.1	-6.5	nt	3.1%	-3.6
COc1cccc(/C=N/NC(=O)c2cccc([N+](=O)[O-])c2)c1OS(=O)(=O)c1ccc(C)cc1	6.1	-6.7	-41.4	-5.6%	-2.5
CCCCNC(=O)/C(=C/c1ccccc1)NC(C)=O	-1.8	96.5	-4.4	-10.2%	2.9
O=C(C1=C[C@@H]2[C@H]3C(=O)N(c4ccccc4Cl)C(=O)[C@H]3[C@@H](C(=O)c3ccc(Cl)cc3)N2C=C1)c1ccccc1	6.2	2.8	-8.9	7.0%	-8.4

Continued (three carried over from the part before).
SMILES	RecA intein inh	Mtb bLac sens	YopH inh	Mtb growth	Arbovirus inh	others
COc1cccc(/C=N/NC(=O)c2cccc([N+](=O)[O-])c2)c1OS(=O)(=O)c1ccc(C)cc1	6.1	-6.7	-41.4	-5.6%	-2.5
CCCCNC(=O)/C(=C/c1ccccc1)NC(C)=O	-1.8	96.5	-4.4	-10.2%	2.9
O=C(C1=C[C@@H]2[C@H]3C(=O)N(c4ccccc4Cl)C(=O)[C@H]3[C@@H](C(=O)c3ccc(Cl)cc3)N2C=C1)c1ccccc1	6.2	2.8	-8.9	7.0%	-8.4
CCOc1cccc(-c2c(C(=O)N/N=C/c3ccco3)nnn2-c2nonc2N)c1	-0.1	7.9	nt	nt	nt
CC(C)Sc1nsc2nc(=O)c(/C=C3\C=Nc4ccccc43)c(N)n12	-2.2	-4.0	nt	6.2%	33.9*
COc1ccc(OC)c(NC(=O)c2cc3sccc3n2C)c1	6.1	0.5	-45.0	9.7%	-2.1
COC(=O)C1=C(c2ccc(S(C)(=O)=O)cc2)C[C@@H]2CC[C@H]1N2C(=O)NCCO	-1.9	-1.6	nt	-3.2%	nt
Cc1ccc(S(=O)(=O)CC(=O)NC(C)c2ccccc2)cc1 (configuration not stated)	-1.4	4.1	nt	nt	nt
COc1ccc(C(=O)COc2ccccc2C(N)=O)cc1	-1.4	15.3	nt	-4.1%	0.9
Cc1ccc(NC(=O)CCNS(=O)(=O)c2ccc3c(c2)oc(=O)n3C)cc1C	0.6	0.0	-11.7	3.0%	-5.3
CCCCC1S/C(=N/N=C/c2cccs2)NC1=O (configuration not stated)	0.0	4.1	-16.9	58.2%	-22.8
Cc1csc(N(C(=O)c2cccc(S(=O)(=O)N3CCCC3)c2)c2ccccc2)n1	-0.1	2.0	2.4	-4.8%	-5.2
COC(=O)c1ccc(CNC(=O)CNC(=O)c2sc3ccccc3c2Cl)cc1	-0.8	-2.1	nt	nt	nt
COc1ccc(NC(=O)CSC2=C(C#N)C(c3ccco3)C3=C(CCCC3=O)N2)c(OC)c1 (configuration not stated)	5.8	97.6	-10.9	13.3%	2.6
CC1CCN(C(=S)c2ccc([N+](=O)[O-])cc2)CC1	0.0	-6.8	-24.5	-1.2%	-7.4
CC(=O)N1CC=C2C(C#N)=C(N)C(C#N)(C#N)[C@H](c3ccoc3)[C@H]2C1	-2.9	4.8	3.3	-16.1%	3.7
COc1ccc(OCC(O)CN2CCN(Cc3ccc4c(c3)OCO4)CC2)cc1 (configuration not stated)	0.8	1.4	-27.9	-2.9%	4.8
Cc1cccc(N=Cc2c(O)n(C)c(=O)n(C)c2=O)c1	0.5	-2.8	nt	nt	nt
O=C(N/N=C/c1ccccc1F)C(=O)N1CCCCCC1	-0.8	3.2	nt	nt	nt
Cc1cccc(N(CC(=O)N2CCCCCC2)S(C)(=O)=O)c1	-2.8	-5.7	nt	nt	nt
CS(=O)(=O)c1ccc(-c2cn3cc(C(=O)O)ccc3n2)cc1	-0.5	-1.4	nt	-0.4%	6.1
Cc1cccc2c(=O)c(C(=O)NCc3ccc(F)cc3)c[nH]c12	-1.2	5.1	nt	nt	nt
O=Cc1cccc(OCc2cccc3ccccc23)c1	15.5	?	nt	nt	nt
CCN(CC)CCNC(C(=O)Nc1ccc([N+](=O)[O-])cc1Br)c1ccccc1 (configuration not stated)	-0.7	5.1	-28.3	4.7%	3.3
CC(=O)N(C)c1ccc(N=Nc2c(C)[nH]n(-c3ccccc3)c2=O)cc1	3.9	5.3	nt	nt	nt
CCc1ccc(NC(=O)C2CCN(C(=O)[C@@H]3Cc4ccccc4CN3)CC2)cc1	-1.3	-2.2	nt	nt	nt
COc1ccc(S(=O)(=O)NCC(c2ccco2)N2CCc3ccccc32)cc1 (configuration not stated)	5.6	6.5	nt	nt	nt
Cc1cc(NC(=O)C2CCCC2)n(-c2nc3ccccc3[nH]2)n1	0.3	22.3	20.0	24.6µM*	-13.3
COC(=O)c1ccsc1NC(=O)CS(=O)(=O)c1ccccc1	-0.7	-3.0	nt	nt	nt
O=C(CCS(=O)CCC(=O)NCc1ccccc1)NCc1ccccc1	-0.1	-3.5	-8.9	-1.1%	4.3	Arbovirus inh repeat=1.3
CC1(C)CN=C(N(C(=O)Nc2ccccc2)c2ccccc2F)S1	0.8	36.8	nt	-3.4%	nt
O=C(CSc1nnnn1C1CCCCC1)N1CCOCC1	-5.1	0.1	nt	3.4%	-1.6
Cc1cc(C)n(C(=O)c2cccc(S(=O)(=O)N3CCCC3)c2)n1	-2.4	7.8	-36.2	-2.7%	1.4
N/C(Cc1cccs1)=N\OC(=O)COc1ccc(Br)cc1Cl	19.1	11.4	-9.8	12.8%	1.9
CC(C)C1CC(CCN)(Cc2ccccc2)CCO1 (configuration not stated)	1.0	6.0	nt	-4.6%	-11.4
O=c1oc2ccccc2n1Cc1ccccc1Cl	3.9	0.9	nt	8.3%	-7.8	Arbovirus inh repeat=1.2
Cc1ccc(Nc2nc(NCCO)nc3c2cnn3C)cc1Cl	1.8	-0.3	nt	nt	nt
NC(=O)C1=C[C@H](c2ccc(C(F)(F)F)cc2)C[C@H](OCc2ccc(CO)cc2)O1	4.4	-2.8	nt	-15.2%	0.1
COc1ccc(NC(=O)CCC(=O)Nc2nnc(C(F)(F)F)s2)c(OC)c1	0.3	-13.9	-12.5	-4.5%	7.0
CCCC(=O)Nc1nnc(SCC(=O)N2C(C)CCCC2C)s1 (configuration not stated)	-1.6	3.0	nt	nt	nt
Cc1ccc(-c2nc3sc4c(c3c(=O)n2N)CCCC4)cc1	-0.8	40.6	7.2	4.3%	7.3
Cc1occc1-c1n[nH]c(=S)n1CC(C)C	0.3	-2.1	-23.9	-0.6%	6.4
COc1ccc(CC(=O)O/N=C(\N)c2ccc(Br)cc2)cc1OC	4.4	2.0	nt	nt	nt
C=CCn1c(SCC(=O)/C(C#N)=C(\C)N)nc2sc(C)c(C)c2c1=O	-0.7	-5.4	-22.8	-0.2%	-15.0
O=C1/C(=C\c2cccnc2)SC(=S)N1C1CCS(=O)(=O)C1 (configuration not stated)	4.6	35.0	-27.1	-5.2%	2.8
CC(C)(C)OC(=O)NNC(=S)NC1CCCCC1	-1.0	99.1	nt	3.9%	0.5
